Source: PubChem BioAssay (National Center for Advancing Translational Sciences (NCATS))
Rango release inh: inhibition of RanGTP-driven Rango-importin beta dissociation; O95149+P62826; Biochemical FRET Rango-importin beta, RanGTP-induced dissociation; Potency, µM (titrated, usually from 46.1 µM), inactives show at the top dose activity change, negative = inhibition; 340,000 tested, 0.071% active; AID 540253; active means falling FRET ratio curve, often poorly fitted, with flat reads before Ran was added; inconclusive means other falling curves, or compound fluorescence or quenching; inactive means flat or rising ratio curve;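 note: potency is the fitted concentration of half-maximal effect; % of control where 0% means no effect; nearly all actives have a fitted effect of over 45% in size; -100% = wells without RanGTP and RCC1; the record marks most hits as doubtful in a second field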
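Compounds sat 5 min at room temperature with 0.1 uM Rango biosensor plus 0.25 uM importin beta, then FRET pre-read. RanGTP-RCC1 (0.6 uM Ran, 2mM GTP, 0.2 uM RCC1) added for 45 min, and the CFP/YFP post-read measured blocked complex dissociation.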
Rango complex inh: inhibitors of Rango-importin beta complex formation. Q14974. Rango CFP/YFP FRET sensor + importin beta, 45 min. Potency, µM (highest dose often 92.2 µM), inactives show top-dose inhibition of complex formation. 340,000 tested, 0.031% active. AID 540263; active = rising FRET ratio curve, often small or poorly fitted; inconclusive = mostly compound fluorescence or quenching in the first reads; inactive = flat curves in all reads;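 note: potency is the fitted concentration of half-maximal effect; 0% = DMSO wells and 100% = buffer wells lacking importin beta; nearly all actives have a fitted effect of over 15% in size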
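FRET biosensor (snurportin 1 IBB flanked by EYFP and cerulean), 50 nM, with compound 5 min, then 0.125 microM importin beta in PBS, 1 mM DTT, 0.02% Tween-20, 0.1% BSA. CFP/YFP ratio read after 45 min at room temperature; pre-read flags interference.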
miR-21 reporter: raises the signal of a miR-21 reporter; Potency, µM (titrated, usually from 38.3 µM), without a hit: at the top dose reporter change, positive = more light; HeLa miR-21 FLuc reporter, luciferase, 48 h; 340,000 tested, under 10 active; active = well fitted rising curve with a large enough effect; inconclusive = small, poorly fitted or top-dose-only effect; inactive = no such curve, though single readings can be large or run the other way;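 note: % of control where 0% means no effect; miR-21 action dims this reporter so a rising signal means less miR-21 action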
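HeLa cells endogenously expressing miR-21, stably carrying CMV-driven firefly luciferase with a downstream miR-21 binding site, 2000 cells/well. Titrations up to approximately 40 uM, 48 hours; luciferase luminescence read.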
GLA inh pH 4.5: inhibitors of human alpha-galactosidase A at pH 4.5; purified enzyme, 4-MU-alpha-Gal fluorescence, pH 4.5; activity change, negative = inhibition, % at 105 µM; 230,000 tested, under 10 active; AID 1467; inconclusive = small, poorly fitted or top-dose-only inhibition, or a rising curve; inactive = flat fitted curve, though single readings scatter; no compound was filed as active;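 note: 0% = full activity with enzyme and -100% = basal without enzyme; dose as in the result columns while the protocol names 77 µM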
Target sequence (P06280 whole entry, looked up): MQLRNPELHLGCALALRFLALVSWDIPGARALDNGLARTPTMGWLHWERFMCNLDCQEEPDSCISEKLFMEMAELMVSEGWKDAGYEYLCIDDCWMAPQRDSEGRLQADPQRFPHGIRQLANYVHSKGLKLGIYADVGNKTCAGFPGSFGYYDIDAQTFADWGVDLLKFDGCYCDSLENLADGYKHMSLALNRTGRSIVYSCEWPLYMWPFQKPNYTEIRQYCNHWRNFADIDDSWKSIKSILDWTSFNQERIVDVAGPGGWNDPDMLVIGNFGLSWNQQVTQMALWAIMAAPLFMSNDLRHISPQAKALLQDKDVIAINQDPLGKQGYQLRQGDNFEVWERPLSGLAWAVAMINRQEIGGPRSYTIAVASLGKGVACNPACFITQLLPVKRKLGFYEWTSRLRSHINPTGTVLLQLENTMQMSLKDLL
* hit, by the source's call; ? = inconclusive; . = not tested or not shown; & = joins results of further samples.

Rango release inh	Rango complex inh	compound	miR-21 reporter	GLA inh pH 4.5
-3%	?	COc1ccc2[nH]c3c(c2c1)CCN1C(=O)C(CC(=O)NCCCN(C)C)C[C@H](C(=O)N2CCCCC2)[C@@]31C (stereo not given in full)	.	.
-13%	-1.3%	C=CCn1c(COc2ccccc2F)nnc1SCC(=O)Nc1cc(C)on1	-2%	4
14%	-0.1%	Cc1cccc(N2CCN(C(=O)c3cccc(NC4=NC5CS(=O)(=O)CC5S4)c3)CC2)c1C (stereo not given)	1%	.
-4%	-1.1%	Cc1ccccc1NC(=O)Cc1nc(COC(=O)c2ccccn2)cs1	.	.
-10%	-2.2%	COc1ccccc1NC(=O)C1=C(C)Nc2nnnn2C1c1ccncc1 (stereo not given)	-5%	7
1%	1.2%	CCCOc1ccc(Cc2c(O)nc(SC)[nH]c2=O)cc1	1%	.
0%	-0.7%	O=C(N/N=C/c1cc(Br)cs1)C(O)c1ccccc1 (stereo not given)	-8%	.
-20%	-3.2%	C/C=C/c1ccc(OCC(=O)Nc2cc(S(=O)(=O)N3CCOCC3)ccc2N2CCCC2)c(OC)c1	.	.
-20%	4.7%	O=[N+]([O-])c1ccc(/C=N/Nc2ncc(-c3ccccc3)cn2)cc1	-5%	1
?	?	Cc1ccc(CNC(=O)c2cc3c(=O)n4ccccc4nc3n(CC3CCCO3)c2=N)cc1 (stereo not given)	1%	-13
-8%	4.1%	COc1ccc(Nc2ncnc3ccc(Br)cc23)cc1OC	15%	.
4%	0.3%	CCSc1nnc(NC(=O)C2C3CCC(C3)C2C(=O)O)s1 (stereo not given)	1%	4
-15%	1.6%	COc1ccc2c(c1)CCCC(Br)C2=O (stereo not given)	.	.
0%	4.4%	COC(=O)C(C)N(c1ccc(C)cc1)S(=O)(=O)c1c(C)[nH]c(=O)[nH]c1=O (stereo not given)	-8%	0
6%	-1.9%	Cn1cc(-c2ccc(Cl)cc2)cc(C#N)c1=O	-5%	22

Full records from above:
`O=[N+]([O-])c1ccc(/C=N/Nc2ncc(-c3ccccc3)cn2)cc1` in the list: Rango release inh = -20%; Rango complex inh = 4.7%; miR-21 reporter = -5%; GLA inh pH 4.5 = 1
`Cn1cc(-c2ccc(Cl)cc2)cc(C#N)c1=O` in the list: Rango release inh = 6%; Rango complex inh = -1.9%; miR-21 reporter = -5%; GLA inh pH 4.5 = 22

The list continues:
Rango release inh	Rango complex inh	compound	miR-21 reporter	GLA inh pH 4.5
-21%	-0.5%	CC(=O)C1=C(C)N(Cc2ccccc2)C(=O)N[C@H]1c1ccco1	6%	-11&0
-22%	-3.5%	Cc1ccccc1NC(=S)N(C)Cc1cn(C)c2ccccc12	-11%	-4
-27%	-0.8%	CCOc1ccc(Cl)cc1CNCCCSc1nc(C)cc(C)n1	6%	.
-4%	-1.0%	O=S(=O)(Nc1ccc(O)c2ccccc12)c1cccs1	24%	.
-4%	-0.3%	COc1ccc(-n2c(=O)c3c4c(sc3n(CC(N)=O)c2=O)CCCCC4)cc1	-2%	4
2%	-2.4%	COc1ccc(NC(=O)CN2CCC(NC(=O)c3ccc(OC)cc3)CC2)cc1	0%	.
-6%	-0.5%	O=C(CNCC1CCCCC1)Nc1cccc(S(=O)(=O)N2CCOCC2)c1	1%	2
4%	5.4%	Cc1ccc(C(=O)CSc2nnc3c4ccccc4nc(C(C)(C)C)n23)cc1	-7%	-5
30%	4.3%	COc1ccc(Oc2cccc(Cl)c2CNC(=O)CC(C)(C)CC(=O)O)cc1	-2%	-8
7%	-0.4%	CCC(=O)/C=C1\Sc2ccc(OC)cc2N1CC	11%	-13
?	5.6%	OCCCn1c(CCCNc2nc(-c3cccc(Br)c3)cs2)nc2cc(Cl)c(N3CCCCC3)cc21	15%	.
3%	-0.3%	COc1ccc(N(CC(=O)NC2CCCCC2)C(=O)CNC(=O)c2ccco2)cc1OC	-8%	-1
-11%	?	Cc1cc(C(=O)NNC(=S)Nc2ccccc2C)cs1	-71%	-2
11%	5.1%	COc1ccc(C(c2nnnn2C(C)(C)C)N2CCN(c3nc4ccccc4s3)CC2)cc1OC (stereo not given)	0%	-1
-10%	2.7%	Cc1cccc(-n2c(C)cc(C=C(C#N)C#N)c2C)c1	-6%	-2
-8%	-5.2%	COc1ccc(S(=O)(=O)N(C)C[C@H]2Oc3c(NC(=O)Cc4ccccc4)cccc3C(=O)N([C@H](C)CO)C[C@@H]2C)cc1	.	.
.	.	COc1ccc(Cl)cc1Nc1nc(N2CCCC2)nc(N2CCCC2)n1	0%	3
18%	-0.8%	Cc1cc2nc(CCN(C(=S)NCC3CCCO3)C3CCCC3)[nH]c2cc1C (stereo not given)	5%	-1
0%	3.4%	O=C1N(CCCN2C(=O)C3(OCCO3)c3ccccc32)c2ccccc2C12OCCO2	-5%	3
0%	2.6%	Cc1cccc(C(=O)c2ccccc2C(=O)O)c1O	-6%	-2
7%	-0.6%	CN(C)C(=O)CCc1ccc2c3c([nH]c2c1)[C@]1(C)[C@@H](C(=O)N2CCOCC2)C[C@H](CC(=O)NCCC2=CCCCC2)C(=O)N1CC3	.	.
4%	0.0%	Cc1ncsc1CCOC(=O)C1C2CC3CC(C2)CC1C3 (stereo not given)	-18%	-5
0%	0.1%	O=C(O)CCCC(=O)Nc1ccc(C(=O)N2CCCCC2)c(Cl)c1	-5%	-1
7%	-1.6%	O=C(Cn1c(=O)oc2cc(S(=O)(=O)N3CCCCCC3)ccc21)NC1CCCCC1	-1%	-5
-10%	2.0%	O=[N+]([O-])c1cc([N+](=O)[O-])c(Oc2cncc(Cl)c2)cc1NC1CCCCCCC1	-1%	.
-11%	0.0%	Cc1cc(=O)oc2cc(OCC(=O)NCc3ccncc3)ccc12	0%	0
?	?	CC(C)OC(=O)CC(=O)CSc1nc2c(cc1C#N)CCC2	-51%	8
9%	0.5%	COc1ccc(-c2cc(COc3ccccc3)on2)cc1	-70%	-11
3%	1.0%	COc1ccc(C(=O)NCCc2c[nH]c3ccccc23)cc1[N+](=O)[O-]	0%	.
-6%	-3.1%	O=C(NCC(=O)N1CCN(S(=O)(=O)c2ccccc2)CC1)c1ccc(Br)o1	.	.
-9%	-2.7%	O=C(NC1CCN(S(=O)(=O)c2ccccc2)CC1)C1CCCCC1	0%	-4
-7%	1.2%	Cc1ccc2cc(C)c(SCC(=O)Nc3ccc(S(=O)(=O)N4CCCC4)cc3)nc2c1	0%	3
17%	4.6%	COc1cc(NC(=S)N2CCC(C(N)=O)CC2)cc(OC)c1	0%	-5
-4%	0.9%	C#CC1(NC(=O)NC(=O)c2c(F)cccc2F)CCCCC1	-9%	4
1%	-2.7%	CC(C)(C)CC(=O)Nc1cc(S(=O)(=O)N2CCCCCC2)ccc1Cl	-7%	0
14%	0.1%	C/C(=N\NC(=O)c1ccncc1)c1cccnc1	-2%	.
-2%	-0.1%	COC(=O)CN(c1cc([N+](=O)[O-])ccc1OC)S(C)(=O)=O	1%	1
4%	2.0%	S=c1[nH]nc(COc2cccc3ccccc23)n1Cc1ccccc1	-1%	-1
5%	0.0%	CSc1ccc(/C=C(\NC(=O)c2ccccc2)C(=O)NN)cc1	6%	-5
-6%	5.2%	CCc1nnc(NC(=O)CN2CCN(c3ccccc3OC)CC2)s1	0%	4
19%	0.1%	Cc1n[nH]c(C)c1S(=O)(=O)N(CC(=O)NC1CCCC1)c1ccc(C(C)C)cc1	7%	-14
-8%	-1.2%	Cc1cc(C)cc(NC(=O)N2CCNC(=O)C2CC(=O)Nc2cc(Cl)ccc2Cl)c1 (stereo not given)	0%	.
10%	-3.3%	CCN(Cc1ccc(NC(C)=O)cc1)CC1CCCN(CCc2cccc(F)c2)C1 (stereo not given)	-5%	.
16%	3.4%	Cc1cc(C)n2nc(SCC(=O)c3cccs3)nc2n1	-19%	3
3%	-0.5%	COc1cccc(CN(C)CC(=O)NCc2ccccc2Cl)c1	-17%	10

A few values from above.
Value for O=C1N(CCCN2C(=O)C3(OCCO3)c3ccccc32)c2ccccc2C12OCCO2 in miR-21 reporter: -5%
Value for Cc1cc(C)n2nc(SCC(=O)c3cccs3)nc2n1 in Rango release inh: 16%
Value for Cc1ccccc1NC(=O)Cc1nc(COC(=O)c2ccccn2)cs1 in Rango complex inh: -1.1%
Value for CC(C)OC(=O)CC(=O)CSc1nc2c(cc1C#N)CCC2 in GLA inh pH 4.5: 8
Value for COc1ccc(-c2cc(COc3ccccc3)on2)cc1 in miR-21 reporter: -70%

More structures follow.
Rango release inh	Rango complex inh	compound	miR-21 reporter	GLA inh pH 4.5
-4%	4.1%	CCCCNC(=O)NS(=O)(=O)c1ccc(NC(=O)CCC(=O)c2cccs2)cc1	-4%	.
-10%	-2.0%	NC(=O)c1ccccc1NC(=O)COC(=O)CSCc1cccc(Cl)c1	.	.
5%	-3.8%	COc1ccc(NC(=O)CN(C)C(=O)c2cc3c(s2)CCCCC3)cc1	-7%	.
-3%	1.1%	CN1CCOCCOc2ccccc2OCCOCC1	.	.
-1%	3.4%	CCCn1c2ccc(C)cc2c2n[nH]c(=S)nc21	-11%	.
.	.	COc1ccc(-n2cnc3cc(NS(=O)(=O)c4ccc(C)cc4)ccc32)cc1	-1%	-9
-17%	-0.2%	O=C(CSc1ccc([N+](=O)[O-])cc1)Nc1ccccc1N1CCOCC1	.	.
14%	1.7%	CCOc1ccc(S(=O)(=O)Nc2ccc(C(=O)N3CCC3)cc2)cc1	.	.
-3%	-2.3%	COc1ccc(OC)c(NC(=O)NC2CCCc3ccccc32)c1 (stereo not given)	5%	.
13%	-0.6%	CCOc1ccc(/C=N/NC(=O)c2cc3c(OC)cc(OC)c(OC)c3[nH]2)cc1	21%	.
-7%	-0.5%	O=S(=O)(Cc1ccccc1)NC1c2ccccc2Oc2ccccc21	.	.
15%	0.9%	O=C(O)c1cnn(-c2nc(-c3cccc([N+](=O)[O-])c3)cs2)c1C(F)(F)F	-22%	.
1%	-1.5%	COC(=O)c1ccccc1NC(=O)CSc1ccc(C)cc1	-20%	0
2%	-4.9%	CCCc1[nH]n(-c2ccc(F)cc2)c(=O)c1C=NCC1CCCO1 (stereo not given)	-1%	3
-21%	3.7%	Cc1nnc(NC(=O)CSc2nnnn2Cc2ccccc2)s1	-7%	-19
-2%	-0.2%	CCOC(=O)C1=C(CN2CCc3ccccc32)NC(=O)NC1c1ccc(Cl)cc1 (stereo not given)	18%	-1
1%	-0.1%	CCOC(=O)Cc1csc(NC(=O)c2ccc(Cl)s2)n1	-9%	.
-13%	0.5%	C=CCNC(=O)NC(=O)Cn1c(=O)c2c(ncn2CC)n(Cc2ccccc2)c1=O	-5%	.
?	?	CCOC(=O)C1CCN(S(=O)(=O)c2ccc3c4c(cccc24)C(=O)N3CC)CC1	.	.
-12%	2.5%	CN1/C(=C\C(=O)C[n+]2cccc(C(N)=O)c2)C(C)(C)c2ccccc21	5%	-12
2%	0.7%	CN(C)c1nc(N2CCN(c3ccc(F)cc3)CC2)c(C#N)c(=O)o1	2%	3
19%	5.3%	CCOC(=O)N1CCN(C(=O)CSc2nnc(CNC(=O)c3ccccc3F)o2)CC1	12%	-2
2%	2.0%	CN(CCCNC(=O)COc1cc(=O)n(C)c2ccccc12)Cc1ccccc1	-7%	-1
-1%	-1.2%	COC(=O)[C@H]1C[C@@H]1[C@H](N)c1ccccc1	-4%	-2
-11%	-0.4%	Cc1csc(SC(C)C(=O)Nc2ccc3c(c2)OCCO3)n1 (stereo not given)	-28%	1
-10%	-0.3%	CCCNS(=O)(=O)c1ccc(-n2cnnn2)c(OC)c1	-7%	0
13%	5.8%	COc1ccc2nc(SCC(N)=O)cc(C)c2c1	-29%	4
-15%	0.1%	COc1ccc(-n2c3c(cc(C(=O)NNc4ccccc4)c2=O)C(=O)CC(C)(C)C3)cc1	7%	-4
16%	-0.5%	Cc1ccc(-c2ccc(C(=O)NCc3ccccc3)o2)c2ccccc12	-23%	-3
-18%	3.4%	CCC(C(=O)NCc1cccc(C)c1)n1nc(C)c2c(C)n(-c3ccccc3)nc2c1=O (stereo not given)	4%	.
25%	?	Cc1cc2c(=O)n(Cc3ccco3)c(SCC(=O)N3CCCc4ccccc43)nc2s1	24%	-7

This is a subset. The share of hits here may be higher or lower than overall.
